HCMV NEC inh – inhibitors of HCMV UL50-UL53 nuclear egress complex interaction; HTRF UL50-UL53 interaction, normalized percent inhibition; inhibition, % (no concentration beside the values); hit rate 0.15% among 190,000; AID 1918969;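 active means both replicates at 50% or more, plus weaker picks with an unusually low signal ratio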;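 further: stock transfer was 100 nL into about 20 µL; 0% = negative control wells and 100% = wells with untagged competitor protein; inactives centre near -12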
Sa growth 42C – inhibitors of Staphylococcus aureus growth at 42 °C. hit rate 0.53% among 170,000. relative growth, % (no concentration beside the values). S. aureus RN4220 growth, OD600, 20 h; stronger effect = lower value;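 active means growth at 42 °C up to 50% and 20 or more points under that at 30 °C, or under 10% at both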;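 further: 300 nL library stock went into each well; scaled to the means of positive and negative controls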
GIV Gai3 FP – inhibitors of GIV GBA-motif binding to rat Galpha-i3; Galpha-i3/FITC-GIV peptide fluorescence polarization, 90 min; stronger effect = lower value; scaled: aluminum fluoride 0%, vehicle 100%; percent of control (FP), % (test concentration not listed); hit rate 0.42% among 210,000;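 active means replicate mean at 85% of control or lower, very high polarization wells dropped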;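 further: wells of about 15 µL received 100 nL stock; the first replicate is given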
Target sequence (P08753 whole entry, looked up): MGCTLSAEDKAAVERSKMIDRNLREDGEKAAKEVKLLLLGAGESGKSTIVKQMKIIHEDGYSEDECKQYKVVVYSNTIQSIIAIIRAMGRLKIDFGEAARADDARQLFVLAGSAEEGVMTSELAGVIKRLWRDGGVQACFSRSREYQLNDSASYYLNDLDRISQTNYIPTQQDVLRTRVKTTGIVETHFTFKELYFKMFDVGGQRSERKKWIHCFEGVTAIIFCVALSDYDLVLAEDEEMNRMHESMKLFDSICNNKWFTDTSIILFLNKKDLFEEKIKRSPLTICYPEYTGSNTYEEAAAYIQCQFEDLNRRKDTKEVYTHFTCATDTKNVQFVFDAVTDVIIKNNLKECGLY
Sa growth 42C second temp – further read-out of Sa growth 42C, marked with its call; relative growth, %; measured here: growth at 30 °C;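 optical density after 20 h as mean of two plates; 100% = untreated growth and lower means inhibition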
* hit, by the source's call; · = not tested or not shown; & = joins results of further samples.

SMILES	HCMV NEC inh	Sa growth 42C	Sa growth 42C second temp	GIV Gai3 FP
COC(=O)C1=C(N)N(c2ccc(C)cc2)C2=C(C(=O)CCC2)C1c1ccc(OC)cc1 (stereo not given)	-5	85	78	·
CCOC(=O)c1c(C)oc2c(Br)cc(NS(=O)(=O)c3ccc(Cl)cc3)cc12	-22	·	·	104
Cc1cc(C)nc(SCC(=O)NN)n1	0	74	89	·
O=C(Nc1ccc(S(=O)(=O)Nc2ncccn2)cc1)c1ccccc1Cl	-40	104	84	102
O=C(O)CCc1nn2c3ccccc3nc2n(CCN2CCCCC2)c1=O	-16	105	83	104
COc1ccccc1CNC(=O)c1cccc(N2CCCS2(=O)=O)c1	·	91	90	105
c1ccc(Cn2c3ccccc3n3nc(-c4ccccc4)nc23)cc1	·	103	83	100
NC(=O)c1ccccc1OCc1cc2c(cc1Br)OCO2	15	113	99	·
O=C(CC1SC(N2CCCC2)=NC1=O)Nc1ccc(C(=O)N2CCN(c3ccccn3)CC2)cc1 (stereo not given)	2	95	94	·
O=C(OCc1cc(Cl)c2c(c1)OCCO2)C12CC3CC(CC(O)(C3)C1)C2	14	121	107	·
COc1ccc(-c2cc(OC(=O)c3ccccc3F)c3c(C)oc(C)c3c(=O)c2)cc1OC	-24	·	·	115
CC(C)(C)Nc1nc(Oc2ccc(=O)n(-c3ccccc3)n2)nc(N2CCOCC2)n1	2	109	91	103
O=C1c2ccccc2-c2nn(C(=O)c3ccco3)c3cccc1c23	·	95	92	105
CCOc1ccc(-c2cn3c(n2)sc2cc(C(=O)NCCCN4CCCCC4)ccc23)cc1	·	79	80	106
CC1CCCCN1C(=O)c1cc(-c2ccccc2O)on1 (stereo not given)	0	106	98	103
O=C1C(O)=C(Cc2ccccc2)CN1Cc1ccccc1	6	115	88	·
CN1[C@@H](C[C@H](O)c2ccccc2)CCC[C@H]1CC(=O)c1ccccc1	-37	93	86	98
COc1ccc(Cl)cc1NC(=O)CSc1nnc(C)n2c1cc1occc12	·	94	84	104
O=C(CCCc1nc(-c2ccccc2)no1)Nc1nccs1	-6	·	·	109
COc1ccccc1NC(=O)/C=N/OCc1nc2sc(C)c(C)c2c(=O)[nH]1	8	92	95	·
COC(=O)c1cccc(NC(=O)C2CC2)c1	-1	101	86	102
C#CCn1c(C2CC(=O)N(c3ccc(OC)cc3)C2)nc2ccccc21 (stereo not given)	-19	94	84	98
O=C(O)CC1=C(c2ccccc2)CCC1=O	-5	106	94	96
CNC(=O)N1CCCC(c2cccc(C(=O)NCc3ccccc3Br)c2)C1 (stereo not given)	-15	·	·	102
CCN1CCc2c(OC)cccc2C1=O	-19	94	71	97
CCCCOC(=O)c1ccc2c3c(onc13)-c1ccccc1C2=O	13	99	82	106
O=c1[nH]c2ccc(Cl)cc2c(=O)n1Cc1ccccc1	·	84	83	104
CCCSC1=NC2(CCN(C(=O)NC3CCCCC3)CC2)N=C1c1ccc(Cl)cc1	·	88	88	104
O=C(Cn1ncc2ccsc2c1=O)NCc1ccccc1	9	113	85	105
Cc1ccn2cc(-c3cccc(NC(=O)CCC(=O)O)c3)nc2c1	-9	107	72	102
Nn1cc(-c2ccccc2)[nH]c1=S	7	94	96	·
CN1CCC(=NNC(=O)Cc2cn3ccsc3n2)CC1	-15	86	95	·
O=C1/C(=C/c2ccc3c(c2)OCO3)NC(=S)N1C1CCCCC1	-17	99	91	109
CC(C)NC(=O)CSc1nc2ccccc2n1CC(=O)NC(C)C	-8	99	70	101
CCOc1ccc(NC(=O)CCn2cccn2)cc1	·	75	92	97
Cc1ccc(-n2c(C)ccc2-c2ccccc2)cc1	-29	80	63	105
CC1CN(C(=S)Nc2ccccc2)CC(C)O1 (stereo not given)	-2	119	79	103
O=C(c1cnc(N2CCCC2)nc1)N1CCOCC1	-19	98	87	105
CCc1ccc(/C=C2/C(=O)N(c3ccccc3)N=C2C)cc1	10	73	115	·
Cn1nnnc1SCCCNCc1ccsc1	-15	108	83	99
Cc1ccc(S(=O)(=O)N2CCCC2c2nc3ccccc3s2)cc1C (stereo not given)	-27	103	87	·
O=C(Nc1ccc(Br)cc1)Nc1ccccc1Sc1ccc2nncn2n1	-24	·	·	98
CN1CCc2cc(NC(=O)Nc3cccnc3)ccc21	37	·	·	109
CCOC(=O)c1c(C)oc2ncnc(NC3CC3)c12	-3	·	·	97
CN(C)CCCN1C(=O)CCCCc2sc3c(c21)CCCC3	-11	99	90	98
O=C(NCc1ccc(-c2cccs2)s1)NC(=O)c1ccccc1	·	103	94	102
CC(C)N(Cc1ccccc1)C(=O)c1nc(-c2ccc(Cl)cc2)n2c1CCCCC2	·	76	76	110
CCc1cnc(/N=C/NO)nc1-c1c(F)cccc1F	-19	94	76	104
COc1ccc(C(=O)NC(CO)(CO)CO)cc1OC	-6	79	110	·
CCN(C(=O)Cn1nnc(-c2ccc(Cl)cc2)n1)C1CCS(=O)(=O)C1 (stereo not given)	-8	104	90	·
CNC(=O)CCc1nc2ccccc2n(-c2ccc(OC)cc2)c1=O	-36	90	87	·
CCc1noc2nc(C)nc(Nc3ccc4c(c3)OCCO4)c12	-15	·	·	102
Cc1cc(S(=O)(=O)NCc2nc(N)n(S(=O)(=O)c3ccc(F)c(C)c3)n2)ccc1F	-9&-10	108	91	105&104
Cc1ccc(-c2nnc(Nc3ccc(Br)cc3)c3ccccc23)cc1S(=O)(=O)N1CCN(C)CC1	·	91	96	101
Cc1cc(SCc2ccccc2)n2ncnc2n1	-10	105	75	94
Cc1nnc(N2CCCC(C(=O)NCc3ccccn3)C2)c2nn(-c3ccc(Cl)cc3)c(C)c12 (stereo not given)	4	·	·	100
COC(=O)c1c(NC(=O)c2cc(=O)c3cc(C)cc(C)c3o2)sc2c1CCC2	-25	96	82	103
CC1=C(C(=O)OCCOc2ccccc2)C(c2cc3c(cc2Cl)OCO3)C2=C(CC(C)(C)CC2=O)N1 (stereo not given)	-29	·	·	94
CCC(C)NC(=O)CSc1nc2ccsc2c(=O)n1-c1cccc(Cl)c1Cl (stereo not given)	·	111	88	102
CC(C)n1cnc2nc(COc3ccc(Cl)cc3NC(=O)Nc3ccc(F)cc3F)cc(=O)n21	-4	·	·	96

Some of the entries above, set out differently.
| SMILES | HCMV NEC inh | Sa growth 42C | Sa growth 42C second temp | GIV Gai3 FP |
| --- | --- | --- | --- | --- |
| CCOC(=O)c1c(C)oc2ncnc(NC3CC3)c12 | -3 | · | · | 97 |
| CN(C)CCCN1C(=O)CCCCc2sc3c(c21)CCCC3 | -11 | 99 | 90 | 98 |
| O=C(NCc1ccc(-c2cccs2)s1)NC(=O)c1ccccc1 | · | 103 | 94 | 102 |
| CC(C)N(Cc1ccccc1)C(=O)c1nc(-c2ccc(Cl)cc2)n2c1CCCCC2 | · | 76 | 76 | 110 |
| CCc1cnc(/N=C/NO)nc1-c1c(F)cccc1F | -19 | 94 | 76 | 104 |
| COc1ccc(C(=O)NC(CO)(CO)CO)cc1OC | -6 | 79 | 110 | · |
| CCN(C(=O)Cn1nnc(-c2ccc(Cl)cc2)n1)C1CCS(=O)(=O)C1 (stereo not given) | -8 | 104 | 90 | · |
| CNC(=O)CCc1nc2ccccc2n(-c2ccc(OC)cc2)c1=O | -36 | 90 | 87 | · |
| CCc1noc2nc(C)nc(Nc3ccc4c(c3)OCCO4)c12 | -15 | · | · | 102 |
| Cc1cc(S(=O)(=O)NCc2nc(N)n(S(=O)(=O)c3ccc(F)c(C)c3)n2)ccc1F | -9&-10 | 108 | 91 | 105&104 |
| Cc1ccc(-c2nnc(Nc3ccc(Br)cc3)c3ccccc23)cc1S(=O)(=O)N1CCN(C)CC1 | · | 91 | 96 | 101 |
| Cc1cc(SCc2ccccc2)n2ncnc2n1 | -10 | 105 | 75 | 94 |
| Cc1nnc(N2CCCC(C(=O)NCc3ccccn3)C2)c2nn(-c3ccc(Cl)cc3)c(C)c12 (stereo not given) | 4 | · | · | 100 |
| COC(=O)c1c(NC(=O)c2cc(=O)c3cc(C)cc(C)c3o2)sc2c1CCC2 | -25 | 96 | 82 | 103 |
| CC1=C(C(=O)OCCOc2ccccc2)C(c2cc3c(cc2Cl)OCO3)C2=C(CC(C)(C)CC2=O)N1 (stereo not given) | -29 | · | · | 94 |

(further entries)
SMILES	HCMV NEC inh	Sa growth 42C	Sa growth 42C second temp	GIV Gai3 FP
CC(=O)N1CCN(c2ccc(NC(=O)CSc3nc4ccccc4o3)cc2)CC1	24	98	101	103
CC(C)NC(=O)CN1C(=O)C(C)CSc2ccc(S(=O)(=O)N3CCCC3)cc21 (stereo not given)	-12	·	·	98
CCCCC(O)(c1ccc(OC)cc1)C(CN1CCOCC1)c1ccccc1 (stereo not given)	·	88	72	105
COc1ccc([C@H]2CC(=O)c3c(O)cc(O)cc3O2)cc1O	-11	103	88	101
CCN(CC)C(=O)Cn1cc(S(=O)(=O)CC(=O)N2CC(C)OC(C)C2)c2ccccc21 (stereo not given)	-10	103	89	99
Cc1ccccc1N1C(=O)C(Cc2ccccc2)N=C1N(CCCN1CCOCC1)Cc1ccco1 (stereo not given)	-28	98	71	101
CC(C)Cn1c(-c2ccccc2Cl)nc2ccccc21	-10	84	88	103
CN(C(=O)COC(=O)c1n[nH]c2ccccc12)c1ccccc1	-18	125	85	·
COc1ccc(CCNC(=O)CCCn2c(=O)c3ccccc3n(Cc3c(C)cc(C)cc3C)c2=O)cc1OC	-23	94	87	104
S=c1nc2ccccc2c2nc(COc3ccccc3Br)[nH]n12	-1	0.6*	0.2*	108
S=C(SCc1ncon1)N1CCOCC1	-21	77	61	100
CCOC(=O)c1cc2c(=O)n3ccccc3nc2n(Cc2ccco2)c1=NC(=O)c1cccc(F)c1	-35	110	66	106
O=C(Cc1noc2ccccc12)N1CCCC1	·	112	90	100
CC(C)COc1ccccc1C(=O)NC(CO)C(=O)O (stereo not given)	-3	110	98	100
CC(OC(=O)c1ccc2ccccc2n1)C(=O)N(C)c1ccccc1 (stereo not given)	-44	101	93	·
COc1cc2[nH]c(=O)n(CCCCCC(=O)N3CCN(c4cccc(C(F)(F)F)c4)CC3)c(=O)c2cc1OC	10	86	86	101
CC1(C)CC(NS(=O)(=O)c2ccc(S(=O)(=O)N3CCOCC3)cc2)CCO1 (stereo not given)	1	77	105	99
CC1Cc2cc(S(=O)(=O)NCCC(=O)Nc3ccc(F)cc3F)ccc2N1C(=O)C1CC1 (stereo not given)	-32	92	77	102
Cc1nc2ccc(NC(=O)c3ccc(Br)cc3)cc2s1	-3	·	·	100
COc1ccc(C2CC(=O)N(c3ccc(C)cc3C)C(=O)C2)cc1OC	-26	·	·	100
CCOC(=O)c1cnc(-c2cccs2)nc1Nc1ccc(C)cc1	-29	114	95	100
CCC1COC(C)CN1 (stereo not given)	-10	84	93	·
COc1ccc(-c2ccc(-c3noc(-c4cc(OC)cc(OC)c4)n3)c(OC)n2)cc1	-20	94	69	111
CN(C)S(=O)(=O)c1ccc(NCC(=O)Nc2ccc(SC(F)F)cc2)cc1	-19	109	100	·
CC(C)CN(CC(C)C)Cn1nc(-c2cccc(S(=O)(=O)N3CCOCC3)c2)oc1=S	1	90	100	·
O=C(NCc1ccc2c(c1)OCO2)Oc1ccccc1	·	87	88	97
C=CCc1c(C)nc2nc(SCC(=O)Nc3ccc(C)c(C)c3)nn2c1C	·	106	75	102
CCOC(=O)c1c(C)[nH]c(C)c1S(=O)(=O)N(C)CC(=O)Nc1ccc(C)cc1C	·	99	86	104
Cc1ccc(N(C)C(CNS(=O)(=O)c2ccccc2)c2ccccc2)cc1 (stereo not given)	-16	87	72	103
COc1ccccc1N1CCN(S(=O)(=O)c2ccc(CN3C(=O)c4cccnc4C3=O)cc2)CC1	-19	·	·	106
CN(C)Cc1ccc(C(=O)O)o1	-11	98	100	101
COc1ccccc1N(C)S(=O)(=O)c1ccc(C(=O)N2CC(C)OC(C)C2)cc1 (stereo not given)	13	85	93	·
O=C(CSc1nc2c(c(=O)[nH]1)CN(Cc1ccccc1)CC2)NCc1ccccc1	·	89	80	97
CCNC(=S)N/N=C/c1ccc(C#N)cc1	-22	93	101	·
Cc1nc(-c2ccccc2)sc1C(=O)Nc1cccc(-c2cn3ccccc3n2)c1	-8	·	·	106
CCCCn1c(SCC(=O)c2cc(C)n(C)c2C)nc2cc(S(N)(=O)=O)ccc21	-28	94	95	·
CCCCCCCc1nnc(NC(=O)c2cccs2)s1	-41	86	89	97
COc1ccc(C(=O)Cn2c(SC)nc3ccccc32)cc1	-4	79	95	·
CC1CCN(c2nc3c(S(=O)(=O)c4ccccc4)nnn3c3ccsc23)CC1	-9	94	77	110&107
Cc1nc(C)c(S(=O)(=O)NCc2ccc3c(c2)CCO3)s1	2	106	107	98
CC(C)C(NS(=O)(=O)c1ccccc1)C(=O)NC1CCCC1 (stereo not given)	-19	90	100	100
Cc1ccccc1NC(=O)Cn1c(SCC(=O)Nc2ccc(F)cc2)nc2ccccc21	·	83	77	98
Cc1ccc(C2N3CC4(C)CN2CC(c2ccccc2)(C3)C4=O)cc1 (stereo not given)	-15	100	85	101
CC1Oc2c(C(=O)O)cccc2C1C (stereo not given)	-24	87	95	·
CN(C)c1ccc(-c2nc3ccc4ccccc4c3c3c2CCC3)cc1	·	105	92	99
Cc1nc(C(F)(F)F)c(-c2ncn[nH]2)s1	-16	·	·	99
O=C(Nc1ccnn1Cc1cccs1)C(Sc1ccccc1)c1ccccc1 (stereo not given)	-26	83	92	·
CNC(=O)CNC(=O)Nc1ccc(C)cc1	-10	101	87	·
Cc1ccccc1C(=O)N1CCC(C(=O)Oc2ccc3c(c2)OCO3)CC1	-17	77	91	·
COc1ccc(NC(=O)C2CCCN(S(=O)(=O)c3ccc4c(c3)NC(=O)CO4)C2)cc1OC (stereo not given)	-2	·	·	108

From PubChem
